# High-throughput results as filed in PubChem BioAssay.
# RN4220 kill – growth inhibition of S. aureus RN4220, primary screen, OD600. 16 h. inhibition, % (no concentration beside the values). 0.33% of 330,000 active. AID 1259311, 2017;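 active means z-score of -3 or lower and OD600 up to 0.18 on both plates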;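 further: plate controls were untreated cells for no effect and reference antibiotic for full effect; stock transfer was 100 nL into about 80 µL; one replicate is shown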
# BJeLR viability – MLPCN primary cell-based screen for lethality selective to Ras in HRASV12 cells; BJeLR (HRASV12) viability, CellTiter-Glo ATP luminescence, 48 h; reference of the scale not given here; 0.17% of 300,000 active; inhibition, % (concentration not given with the values);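 active means replicate mean above 50%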;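 further: 50 nL library stock added to about 25 µL; numbers are from one replicate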
# Bead autofluor – compound fluorescence in toxin protease inhibitor counterscreen; compound autofluorescence counterscreen, microsphere flow cytometry; hits give high values; fluorescence intensity (test concentration not listed); 3.1% of 360,000 active;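 active means at least 3 SD above the mean of all compounds, about 16000 in these data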;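 further: 100 nL of 1 mM stock went into each well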
# PrP 5UTR inh – inhibition of PrP 5' UTR reporter expression | cell-based PrP 5' UTR mRNA reporter, plate reader | inhibition, % (concentration not given with the values) | 0.35% of 340,000 active;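 active means every replicate at 50% or more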;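 further: 0 = median of the neutral control wells; tested in H4 reporter cells; numbers are from one replicate; inactives centre near -14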
# Sa ugtP lethal – growth inhibition of ugtP-null S. aureus, primary screen, RN4220 ugtP deletion, OD600; growth inhibition, % (no concentration beside the values); AID 1259309, 2017; 16 h; some inactives read as strong as hits; 0.54% of 330,000 active;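 active means z-score under -3 and OD600 up to 0.15 on both plates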;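 further: plate controls were untreated wells for no effect and antibiotic for full effect; wells of about 80 µL received 100 nL stock; the first replicate is given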
# Mtb hypoxia rep – PubChem AID 1159583. M. tuberculosis hypoxia-regulated fluorescent reporter, fluorescence. 0.1% of 300,000 active. fluorescence inhibition, % (test concentration not listed);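 active means 35 to 45% if threefold the growth effect, above 45% if 1.5-fold the growth effect; inactive means the rest, general growth blockers included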;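 further: wells of about 50 µL received 100 nL stock; 0% = vehicle wells and 100% = reference inhibitor wells; whole bacteria with a GFP reporter of the hypoxia response; strong numbers were not always called active; many hits fall short of the cut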
# Mtb hypoxia rep growth – recorded beside Mtb hypoxia rep, whose call it bears; growth inhibition, %; measured here: M. tuberculosis growth (absorbance);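 0% = vehicle and 100% = reference antibiotic; read after six days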
# * = called active by the depositor; . = not tested or not shown; & = joins results of further samples.
SMILES,RN4220 kill,BJeLR viability,Bead autofluor,PrP 5UTR inh,Sa ugtP lethal,Mtb hypoxia rep,Mtb hypoxia rep growth
CCC(=O)Nc1sccc1C(=O)OC,3.8,2,22995*,-20,4,14,10
Nc1nc(NCC2CCCO2)nc(NCC2CCCO2)c1[N+](=O)[O-] (configuration not stated),3.4,0,2233,-11,0,9,6
O=C(OCC(=O)N1CCCC1)c1ccc(Cl)nc1,2.4,.,3994,-1,3,6,1
O=C(c1ccccc1F)c1cn(Cc2ccccc2)c2ccccc12,-0.9,-5,22262*,-22,-4,-4,-5
O=C(N/N=C/c1ccc([N+](=O)[O-])cc1)c1[nH]ncc1Br,.,2,3612,-69,.,.,.
COC(=O)c1cc(NC(=O)c2cccc(C(F)(F)F)c2)c(=O)oc1C/C=N/OCc1cccc(Cl)c1Cl,.,-3,2582,-18,.,.,.
COc1ccc(/C=C/c2ccncc2)cc1,11,-11,3278,-48,14,-2,-3
CSc1nsc(SCC(=O)Nc2cccc(C(=O)O)c2)n1,0.8,1,5395,-9,9,-3,4
Cc1ccc(S(=O)(=O)Nc2cc(C(=O)Nc3cc(C)cc(C)c3)ccc2Cl)cc1,-8.0,3,2473,-17,-1,.,.
CC(NC(=O)CSc1nnc(COc2ccccc2)o1)c1ccccc1 (configuration not stated),-4.9,-5,4423,-29,7,12,9
O=Cc1ccccc1OCc1ccc2c(c1)OCO2,14,2,3920,-94,5,14,1
COc1ccccc1NS(=O)(=O)c1cc(N)ccc1N1CCOCC1,3.0,.,3303,-14,1,8,10
COc1c2c(cc(O)c1C(C)=O)OC(C)(C)C=C2,8.3,.,2870,-15,17,15,8
COC(=O)c1cnc(Oc2ccc(NC(=O)NC(=O)c3ccccc3Cl)cc2)cc1C(F)(F)F,7.2,22,5647,-33,0,10,2
CSc1ccc(S(=O)(=O)Nc2ccc3c(c2)NC(=O)CC3)cc1,-1.4,2,5232,-13,-5,-3,-4
Cc1ccc(-c2cc(C(=O)NCC(c3ccccc3)N(C)C)c3ccccc3n2)o1 (configuration not stated),4.9,.,3029,-62,1,11,7
CCOc1ccccc1NC(=O)N1CCC(c2nc3ccc(C)cc3[nH]2)CC1,2.0,-9,11879,-18,0,10,13
CCCN1CCN(C(c2cc3cc(OCC)ccc3[nH]c2=O)c2nnnn2C2CCCCC2)CC1 (configuration not stated),-1.8,1,22710*,-7,-7,-2,3
CC(C)(C)NC(=O)NC(=O)COC(=O)CCC1CCCCC1,0.9,-4,4330,7,0,.,.
COc1ccc(C2C(C#N)=C(N)Oc3cc(O)ccc32)cc1C (configuration not stated),8.5,-2,4161,-21,0,4,12
CCC(=Nc1ccccc1O)C1=C(O)CC(c2ccccc2)CC1=O (configuration not stated),9.0,2,4998,-4,-2,70*,46*
Cc1cc(C(=O)OCC(=O)N2CCOCC2)c(C)n1-c1ccccc1,3.6,.,3973,0,0,20,6
O=C1CCSc2ccc(Cl)cc2N1Cc1ccc(Cl)cc1,-3.9,-1,4204,-17,69,.,.
CCCCNC(=O)C1CCC(CNS(=O)(=O)c2ccc(NC(C)=O)cc2)CC1 (configuration not stated),2.1,-3,9889,-4,1,4,-7
O=C(Cn1ncc2c1-c1ccccc1OC2)N1CCN(Cc2ccc3c(c2)OCO3)CC1,5.2,1,6197,-24,1,5,3
Nc1ccc(C(=O)Nc2ccc3cc(S(=O)(=O)O)ccc3c2)cc1,5.9,.,3931,-42,3,14,12
NNC(=O)C(Cc1cnc[nH]1)NC(=O)OCc1ccccc1 (configuration not stated),2.6,2,3709,-33,7,14,2
CC(=O)Nc1cccc(NCC(=O)Nc2cc(S(=O)(=O)N3CCCCC3)ccc2Cl)c1,2.2,.,3933,-32,7,-4,5
O=C(NCc1ccccc1)C1=CC(c2ccc3c(c2)OCO3)CC(OCCCCO)O1 (configuration not stated),4.8&4.2,.,.,.,5&3,16&7,10&3
COC(=O)c1cccc(NC(=O)CSc2nc(=O)cc(N)n2-c2ccccc2)c1,2.9,-4,16937*,-18,4,1,10
COc1cccc(OCc2cc(C(=O)N(C)Cc3nc(C)cs3)no2)c1,3.5,-1,4935,-56,1,-5,-2
COCCNC(=O)c1c(N)n(-c2cccc(C)c2)c2nc3ccccc3nc12,0.5,2,2924,1,-11,3,1
C[C@H](CO)N1C[C@H](C)[C@@H](CN(C)Cc2ccccc2)Oc2ccc(NC(=O)Cn3cnnn3)cc2C1=O,3.8,.,3538,-9,-1,8,8
Cc1[nH]nc2c1C(c1ccsc1)C(C#N)=C(N)O2 (configuration not stated),-5.2,13,3234,-11,-5,4,4
O=C(CCCC1=NS(=O)(=O)c2ccccc2N1)N1CCN(c2ccc(Cl)cc2)CC1,5.3,2,4112,-84,5,0,-5
COc1ccc(CCN2C(=O)C(C)=C(C)C2=O)cc1OC,2.5,4,3922,-18,3,7,0
COc1ccc(NC(C)=O)cc1NC(=O)C1CCCN1C(=O)c1cccs1 (configuration not stated),2.2,.,5301,-21,4,-4,3
CCOc1ccc(N(C)S(=O)(=O)c2csc(C(N)=O)c2)cc1,6.2,-10,3953,-19,2,16,3
Fc1ccc(Oc2nc(-c3ccccc3)nnc2C(F)(F)F)cc1,0.3,0,2360,15,5,.,.
CN(Cc1cccc(Cl)c1Cl)C(=O)c1ccc(NC(=O)CC#N)cc1,2.1,-8,2091,-15,-11,.,.
COCCn1c(Cc2ccccc2)nnc1SCc1ccc([N+](=O)[O-])cc1,3.8,-29,2565,2,5,0,5
COc1ccc(-c2nnc(SCC(=O)Nc3ncc(C)s3)n2-c2ccccc2)cc1OC,7.2,-7,4489,-18,-5,3,10
C1=Cc2ccccc2Nc2ccccc21,6.7,1,3626,-11,4,16,9
CN(Cc1c(C(=O)N(C)Cc2ccccc2)nc2ccccn12)CC1Cc2ccccc2O1 (configuration not stated),1.8,-33,4281,-5,4,-6,7
CCn1c(=O)cc(OCC(=O)NCc2cccnc2)c2ccccc21,0.6,0,23271*,2,-5,5,9
COc1cccc(-n2c(C)nc3c(cnn3-c3ccc(C)cc3)c2=O)c1,-4.6,-2,3685,-9,4,.,.
O=c1c2c(-c3ccccc3)ccnc2[nH]n1-c1ccccc1,-7.0,4,4497,-14,-3,18,3
Cc1ccc(S(=O)(=O)Nc2ccccc2F)cc1C(=O)NNC(=O)c1ccccc1O,6.0,7,5826,-17,6,9,13
CCOc1ccc(S(=O)(=O)NCCC(=O)N2CCN(c3ccc(OC)cc3)CC2)cc1,4.7,7,4776,1,5,3,2
O=c1[nH]c(=S)[nH]c2sccc12,2.5,11,3292,-8,3,4,-11

# Next section
SMILES,RN4220 kill,BJeLR viability,Bead autofluor,PrP 5UTR inh,Sa ugtP lethal,Mtb hypoxia rep,Mtb hypoxia rep growth
Cc1cccc(N2N=C(C(=O)Nc3ccc(Cl)c(S(=O)(=O)N4CCOCC4)c3)CCC2=O)c1,6.0,.,2596,-6,5,-7,-6
O=S(=O)(c1ccccc1F)N1CCN(Cc2cc3c(cc2O)OCO3)CC1,3.1,.,7904,-32,0,7,-2
C=CCc1cccc(/C=N/NC(=O)CCCNc2ccc(C)cc2)c1O,.,4,2379,-16,.,.,.
CC(=O)c1cccc(N(C(=O)CNC(=O)c2ccco2)C(C(=O)NC2CCCC2)c2ccncc2)c1 (configuration not stated),-1.3,-4,5630,5,5,-8,3
O=C(NC(=S)N1CCCCC1CO)c1cccs1 (configuration not stated),2.5,.,2782,-2,8,7,9
COc1ccccc1NC(=O)CCc1c(C)[nH]c(=O)c(C#N)c1C,0.7,-3,4828,-21,-6,.,.
COc1ccc(NC(=O)[C@@H](NS(=O)(=O)c2cccc(Cl)c2)C(C)C)cc1S(=O)(=O)N1CCOCC1,1.3,.,.,-17,0,9,0
COc1c(O)c(=O)n2c3ccccc3c3ccnc1c32,2.5,6,5041,-9,0,.,.
O=C(OCCC1Oc2cccnc2NC1=O)c1ccc([N+](=O)[O-])cc1 (configuration not stated),14,-8,.,.,6,-6,-1
CC(C)n1ncc2c(C(=O)Nc3cccc(S(=O)(=O)N(C)C)c3)cc(C3CC3)nc21,-2.6,.,6200,-8,-5,1,6
Fc1ccc(CO/N=C2\CCCc3nonc32)cc1,.,-9,3271,-21,.,.,.
N#Cc1ccc(C23CC4(C2)C(CN(CC2CCCCC2)C4c2ccccc2)C3c2ccccc2)cc1 (configuration not stated),-5.1,.,.,.,1,8,10
Cc1cc(C)n(-c2ccc(S(=O)(=O)N3CCCC3)cc2[N+](=O)[O-])n1,2.5,-7,6253,-8,-1,4,4
COc1ccc(CN(C)CC(=O)NCC(=O)Nc2c(C)cccc2C)cc1,2.1,.,4081,-7,3,5,10
CCn1c(SCC(=O)N2CCN(S(=O)(=O)c3ccccc3)CC2)nnc1-c1cccs1,4.3,-6,9075,-21,-6,12,8
Cn1c(=O)cc(OCCCC(=O)NCc2ccc(F)cc2Cl)c2ccccc21,7.8,-3,2212,-44,-4,6,2
O=C(Nc1ccccc1SCC1CSc2nc3ccccc3c(=O)n21)c1cccc(Cl)c1 (configuration not stated),-2.1,16,2720,7,1,.,.
NC(CC(=O)Nc1cc(C(F)(F)F)ccc1Cl)=NO,6.7,.,.,.,0,13,4
COc1ccc(OC)c(NC(=O)CC2SC(=N)N(c3ccccc3)C2=O)c1 (configuration not stated),4.5,.,3878,-19,9,-11,-5
O=C(OC1CCOC1=O)c1ccc(Cl)c(S(=O)(=O)N2CCCCC2)c1 (configuration not stated),-0.5,1,4792,-10,0,10,3
NC/C(=N\O)c1ccc(Cl)cc1Cl,.,-2,8861,-17,.,.,.
COc1ccc(NN=C2CCCCC2=O)cc1,6.0,.,.,.,1,8,11
CC(OC(=O)Cn1cnc2ccccc2c1=O)C(=O)N(C)c1ccccc1 (configuration not stated),-3.2,-1,4847,-27,-4,-10,-4
CCOC(=O)C1CCN(C(=O)COc2ccc(S(=O)(=O)N3CCOCC3)cc2)CC1,-1.2,-5,5455,-3,2,4,2
CCOc1ccc2oc(=O)cc(CN3CCOCC3)c2c1,2.8,9,2946,-22,13,7,-5
O=c1cc(N2CCCCC2)c(-c2ccccc2)nn1Cc1ccc(Cl)cc1,4.1,-8,2813,-10,-4,.,.

# Shown with values under each structure: 16 of the compounds above.
# Results follow in this order: RN4220 kill, BJeLR viability, Bead autofluor, PrP 5UTR inh, Sa ugtP lethal, Mtb hypoxia rep, Mtb hypoxia rep growth
- COc1c(O)c(=O)n2c3ccccc3c3ccnc1c32
    2.5, 6, 5041, -9, 0, ., .
- O=C(OCCC1Oc2cccnc2NC1=O)c1ccc([N+](=O)[O-])cc1 (configuration not stated)
    14, -8, ., ., 6, -6, -1
- CC(C)n1ncc2c(C(=O)Nc3cccc(S(=O)(=O)N(C)C)c3)cc(C3CC3)nc21
    -2.6, ., 6200, -8, -5, 1, 6
- Fc1ccc(CO/N=C2\CCCc3nonc32)cc1
    ., -9, 3271, -21, ., ., .
- N#Cc1ccc(C23CC4(C2)C(CN(CC2CCCCC2)C4c2ccccc2)C3c2ccccc2)cc1 (configuration not stated)
    -5.1, ., ., ., 1, 8, 10
- Cc1cc(C)n(-c2ccc(S(=O)(=O)N3CCCC3)cc2[N+](=O)[O-])n1
    2.5, -7, 6253, -8, -1, 4, 4
- COc1ccc(CN(C)CC(=O)NCC(=O)Nc2c(C)cccc2C)cc1
    2.1, ., 4081, -7, 3, 5, 10
- CCn1c(SCC(=O)N2CCN(S(=O)(=O)c3ccccc3)CC2)nnc1-c1cccs1
    4.3, -6, 9075, -21, -6, 12, 8
- Cn1c(=O)cc(OCCCC(=O)NCc2ccc(F)cc2Cl)c2ccccc21
    7.8, -3, 2212, -44, -4, 6, 2
- O=C(Nc1ccccc1SCC1CSc2nc3ccccc3c(=O)n21)c1cccc(Cl)c1 (configuration not stated)
    -2.1, 16, 2720, 7, 1, ., .
- NC(CC(=O)Nc1cc(C(F)(F)F)ccc1Cl)=NO
    6.7, ., ., ., 0, 13, 4
- COc1ccc(OC)c(NC(=O)CC2SC(=N)N(c3ccccc3)C2=O)c1 (configuration not stated)
    4.5, ., 3878, -19, 9, -11, -5
- O=C(OC1CCOC1=O)c1ccc(Cl)c(S(=O)(=O)N2CCCCC2)c1 (configuration not stated)
    -0.5, 1, 4792, -10, 0, 10, 3
- NC/C(=N\O)c1ccc(Cl)cc1Cl
    ., -2, 8861, -17, ., ., .
- COc1ccc(NN=C2CCCCC2=O)cc1
    6.0, ., ., ., 1, 8, 11
- CC(OC(=O)Cn1cnc2ccccc2c1=O)C(=O)N(C)c1ccccc1 (configuration not stated)
    -3.2, -1, 4847, -27, -4, -10, -4

# Random draw from the library; about 3.9% have a hit in one of these screens.
